# Screening data deposited in PubChem by several laboratories.
# Arbovirus anti = antivirals against arbovirus infection; AID 1251; 0.37% of 200,000 active; inhibition, % at 10 µM; arbovirus infection cell-based antiviral screen;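 active = inhibition from about 30%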;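 also: bluetongue infection of BSR cells; cell survival read as ATP light after 72 h; 0% = infected wells without compound and 100% = uninfected wells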
# YopH PTP inh = YopH (Yersinia) phosphatase inhibition | fluorescence Ex485/Em525 | inhibition, %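 (about 10 µM by stock and volumes)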 | 0.16% of 140,000 active | AID 898;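 active = inhibition of 50% or more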;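 also: controls were vehicle for no effect and minimum signal wells for full effect; inactives centre near -20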
# RecA splice inh = blocks M. tuberculosis RecA intein splicing | cell-free RecA intein splicing, fluorescence | AID 2221 | 0.75% of 290,000 active | inhibition, %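 (about 9 µM by stock and volumes)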; in the data active = inhibition above about 30%;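 also: 0% = vehicle wells and 100% = reference inhibitor control wells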
# Target sequence (P9WHJ3 whole entry, looked up, canonical isoform): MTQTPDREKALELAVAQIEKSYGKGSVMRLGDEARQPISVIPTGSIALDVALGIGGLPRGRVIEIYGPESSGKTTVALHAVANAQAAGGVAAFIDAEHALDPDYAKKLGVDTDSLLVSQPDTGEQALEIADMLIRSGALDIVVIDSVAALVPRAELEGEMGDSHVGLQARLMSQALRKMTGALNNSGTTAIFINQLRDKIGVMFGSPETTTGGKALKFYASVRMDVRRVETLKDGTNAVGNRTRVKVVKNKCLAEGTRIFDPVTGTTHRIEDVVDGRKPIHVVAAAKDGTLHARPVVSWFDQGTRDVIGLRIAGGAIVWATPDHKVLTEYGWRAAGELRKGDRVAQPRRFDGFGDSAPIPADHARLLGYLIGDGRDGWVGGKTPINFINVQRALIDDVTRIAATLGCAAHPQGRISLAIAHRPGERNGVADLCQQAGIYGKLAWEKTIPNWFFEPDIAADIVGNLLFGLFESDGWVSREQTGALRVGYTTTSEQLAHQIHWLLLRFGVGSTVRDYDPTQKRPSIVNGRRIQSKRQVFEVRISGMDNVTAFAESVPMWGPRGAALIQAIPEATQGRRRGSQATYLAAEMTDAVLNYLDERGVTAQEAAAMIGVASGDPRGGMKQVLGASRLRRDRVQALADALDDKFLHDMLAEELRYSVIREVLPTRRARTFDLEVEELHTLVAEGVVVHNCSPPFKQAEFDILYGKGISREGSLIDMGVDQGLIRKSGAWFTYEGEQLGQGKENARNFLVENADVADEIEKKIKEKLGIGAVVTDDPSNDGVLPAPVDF
# Mtb growth = M. tuberculosis H37Rv growth inhibitors, H37Rv strain (AID 1626). M. tuberculosis H37Rv growth inhibition; higher % means a stronger effect. inhibition, % at 10 µM; hits with a dose series show IC50 in µM. 0.95% of 220,000 active;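 active = confirmed in a dose series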;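 also: bacteria incubated seven days before Alamar blue readout; 0% = bacteria only wells and 100% = bacteria with antibiotic wells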
# Mtb bLac sens = beta-lactam sensitization of Mtb H37Rv; M. tuberculosis H37Rv growth with meropenem, percent inhibition; hits of this screen are not shown here; inhibition, % at 25 µM; 0.27% of 330,000 active; AID 434955;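 active = about 74% or more and at least 40 points above the plate without the antibiotic, then above 30% in a dose series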;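 also: growth measured after seven days incubation then overnight dye step; 0% = bacteria only wells and 100% = bacteria with antibiotic; twin plates without the antibiotic show which effects depend on it; some results filed as inactive read as strong as hits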
# Arbovirus anti repeat = further read-out of Arbovirus anti, marked with its call; inhibition, %; measured here: 10K subset replicate screen; many hits read low in the repeat;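 first of two repeat runs on a subset; 0% = infected and 100% = uninfected wells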
# * marks the source's active call; other numbers are inactive results; x = not tested or not shown; & = joins results of further samples. This is a subset (hit frequency here may not be typical).
# Sample of the layout, 5 compounds:
SMILES,Arbovirus anti,YopH PTP inh,RecA splice inh,Mtb growth,Mtb bLac sens,others
Cc1c2cn[nH]c(=O)c2c(C)n1Cc1ccc(F)cc1,-0.7,-9.6,-2.4,2.5%,-6.7,Arbovirus anti repeat=7.6
CC(C)c1cc(C(=O)N2CCCC(CCC(=O)N3CCN(c4ccccn4)CC3)C2)no1 (centres undefined),x,x,-0.1,1.1%,-6.3,
O=[N+]([O-])c1c(NCCCO)cc(Sc2nc3ccccc3s2)c2nonc12,-32.3,-29.4,25.8,x,96.4,
CC(=O)NC(=O)NC(C)Cc1ccccc1 (centres undefined),2.8,1.3,-0.9,0.7%,-7.9,
Cc1oc2nc(SCC(=O)NCc3cccnc3)nc(N)c2c1C,3.6,7.0,-0.8,-7.2%,10.2,

# Results, repeating the preview:
SMILES,Arbovirus anti,YopH PTP inh,RecA splice inh,Mtb growth,Mtb bLac sens,others
Cc1c2cn[nH]c(=O)c2c(C)n1Cc1ccc(F)cc1,-0.7,-9.6,-2.4,2.5%,-6.7,Arbovirus anti repeat=7.6
CC(C)c1cc(C(=O)N2CCCC(CCC(=O)N3CCN(c4ccccn4)CC3)C2)no1 (centres undefined),x,x,-0.1,1.1%,-6.3,
O=[N+]([O-])c1c(NCCCO)cc(Sc2nc3ccccc3s2)c2nonc12,-32.3,-29.4,25.8,x,96.4,
CC(=O)NC(=O)NC(C)Cc1ccccc1 (centres undefined),2.8,1.3,-0.9,0.7%,-7.9,
Cc1oc2nc(SCC(=O)NCc3cccnc3)nc(N)c2c1C,3.6,7.0,-0.8,-7.2%,10.2,
CCOC(=O)c1c(NC(=O)CN2CCN(C(=O)c3ccco3)CC2)sc2c1CCCC2,-34.8,-6.3,9.4,x,84.8,
COC(=O)/C=C(\C)NC(=O)c1cccs1,0.7,-39.4,-5.2,9.8%,-0.7,Arbovirus anti repeat=3.8
CCOC(=O)C1CCN(S(=O)(=O)c2ccccc2)CC1,x,x,-1.1,x,1.4,
O=C(O)CCSc1nnc(-c2ccccc2)n1-c1ccccc1,4.3,-37.1,1.1,-14.7%,0.5,Arbovirus anti repeat=3.5
S=C(Nc1ccccc1)Nc1ccc(Cl)cc1Cl,7.4,0.8,3.0,-3.8%,-0.4,
CCc1ccc(Nc2nnc(SCC(=O)c3ccc4c(c3)NC(=O)CO4)s2)cc1,-3.5,x,x,5.9%,x,
COc1ccc2ccccc2c1/C=N/O,9.2,-39.7,-4.4,-2.9%,95.5,
COC(=O)c1ccc(C)c(NC(=O)C(CCSC)NC(=O)c2cc(OC)c(OC)c(OC)c2)c1 (centres undefined),x,x,-0.5,x,1.2,
CN(C)C(=O)NC1CCCCCCCCCCC1,5.4,-40.4,-0.3,-4.3%,-12.5,
COCCCn1c(SCC(=O)N2CCc3ccccc32)nnc1-c1ccco1,-6.9,-17.6,-0.7,-3.7%,-4.7,
CCOc1c(C)cc(-c2ncccc2O)cc1C,0.9&13.8,-27.1&-3.5,-1.7&0.3,1.4%&2.7%,-3.8&-5.8,
CCC(=O)c1ccccc1OCCCn1cncn1,3.8,-21.2,x,-1.1%,-6.3,
COc1ccccc1NC(=O)CSc1nc(O)cc(=O)n1-c1ccccc1OC,4.6,-2.5,3.5,3.5%,40.3,Arbovirus anti repeat=4.2
CCOc1ccc(NC(=O)CSc2nnc(CNC(=O)c3ccco3)o2)cc1,1.2,x,-1.3,-2.1%,70.5,
Cc1n[nH]c(=O)c2c(NC(=O)COC(=O)/C=C/c3cccc(C(F)(F)F)c3)oc(C)c12,x,x,1.9,x,4.2,
CSc1nc(NC(C)(C)C)nc(Oc2ccc(=O)[nH]n2)n1,3.4,39.5,0.5,-15.7%,0.8,
O=P1(Nc2ccc(F)cc2)COc2ccccc2OC1,-3.8,-27.9,2.8,4.8%,3.7,
CN1CCN(C(=O)C2=C[C@H](c3ccccc3)C[C@H](OCc3ccc(CO)cc3)O2)CC1,4.7,x,3.1,2.7%,-7.6,
Cc1cc(-c2n[nH]c(=S)n2/N=C/c2ccc(Br)s2)n[nH]1,-0.7,-22.0,2.9,-16.9%,9.1,
O=C(CSc1ccccn1)Nc1nc2ccccc2s1,6.2,-19.9,0.8,3.5%,-4.0,
Cc1cccc(NC(=O)c2cnc3sccn3c2=O)c1C,12.3,-12.4,-0.9,3.0%,x,
CCOc1ccccc1NC(=S)NCc1cccn1C,4.4,x,0.6,0.2%,-5.4,
Cc1csc(SCC(=O)NC(=O)c2ccccc2)n1,x,x,-0.3,x,-9.8,
Cc1nc2c(o1)CCc1ccccc1C2O (centres undefined),-4.1,2.5,0.3,-7.5%,2.0,
COC(=O)c1c(NC(=O)CSc2nc3ccccc3c(=O)n2Cc2ccco2)sc(C)c1C,-27.5,0.6,1.1,2.3%,-0.5,
Cc1cc(C)c2c(-c3ccc(F)cc3)c(C#N)c(=O)n(C)c2n1,x,x,-0.7,x,7.3,
O=C(c1cc(-c2ccc(Br)cc2)nc2ccccc12)N1CCC1,x,x,5.6,x,22.3,
Cc1cccc(N=Nc2c(N)n[nH]c2N)c1,x,x,2.9,x,71.7,
O=C(CCCC(=O)c1ccc(F)cc1)c1ccc(F)cc1,x,x,1.3,x,11.9,
CCOc1c(CNCc2ccc(C(=O)O)cc2)cccc1OC,3.9,x,-1.8,-2.1%,-2.2,
CN(NC1OC(=O)c2ccccc21)c1c([N+](=O)[O-])cc(C(F)(F)F)cc1[N+](=O)[O-] (centres undefined),x,x,7.1,-8.7%,-4.2,
CCCC[C@@H]1CNC(=S)N1CCCc1cc(OC)c(OC)c(OC)c1,3.9,x,-0.3,0.7%,-4.7,
O=C(NCCc1ccccc1)C(=O)NCC1OCCCN1S(=O)(=O)c1ccc(F)cc1 (centres undefined),x,x,-1.3,x,-14.3,
O=C(CN1C(=O)c2ccccc2S1(=O)=O)Nc1ncccn1,x,x,0.3,x,-4.9,
COc1ccc(N/N=C(\C#N)C(=N)SCc2ccccc2)cc1,-7.8,x,55.2*,20.4%,x,

# A draw from above in order of heavy-atom count, highest first.
SMILES,Arbovirus anti,YopH PTP inh,RecA splice inh,Mtb growth,Mtb bLac sens,others
COC(=O)c1c(NC(=O)CSc2nc3ccccc3c(=O)n2Cc2ccco2)sc(C)c1C,-27.5,0.6,1.1,2.3%,-0.5,
CCCC[C@@H]1CNC(=S)N1CCCc1cc(OC)c(OC)c(OC)c1,3.9,x,-0.3,0.7%,-4.7,
O=C(c1cc(-c2ccc(Br)cc2)nc2ccccc12)N1CCC1,x,x,5.6,x,22.3,

# Further entries follow:
SMILES,Arbovirus anti,YopH PTP inh,RecA splice inh,Mtb growth,Mtb bLac sens,others
O=C1c2cnc3ncnn3c2CC2c3ccccc3CCN12 (centres undefined),-10.3,x,-25.1,-8.4%,-1.5,
CCOC(=O)C1=C(Cn2cnc3ccccc32)NC(=O)NC1c1ccc(OC)cc1 (centres undefined),-11.9,-27.2,3.1,7.3%,-4.2,
COc1cc(NC(=O)[C@@H](NC(=O)c2ccco2)C(C)C)c(OC)cc1NC(=O)c1ccccc1,-11.6,x,-2.0,-4.0%,72.1,
CCN(CC)c1ccc(-n2c(C)c(C(C)=O)c(C(C)=O)c2C)cc1,-8.9,-1.4,-1.8,-5.9%,-1.3,
O=C(CCN1C(=O)/C(=C/c2ccc3c(c2)OCO3)SC1=S)Nc1ccccc1,9.6,-20.2,-9.5,2.1%,3.8,
CCC(=O)Nc1ccc(C(=O)NNC(=O)c2cccc(C)c2)cc1,x,x,-2.0,x,-3.9,
CCOc1ccc(Cl)cc1CSc1n[nH]c(CC)n1,-5.7,-27.2,2.1,4.3%,-3.6,
O=C(NCC1(c2ccccc2)CCCC1)C(=O)N1CCOCC1,6.3,-27.6,x,-2.3%,-4.8,
O=C(Oc1ccc(N(Cc2cccs2)C2=NS(=O)(=O)c3ccccc32)cc1)c1ccccc1,-3.3,-17.7,x,0.9%,4.3,
Cc1ccc(OCC(=O)NC2CCCCCC2)cc1C,x,x,1.9,x,-8.8,
O=C(CSc1ccccn1)Nc1nc2c(ccc3ccccc32)s1,-2.7,-21.2,3.2,19.7%,1.7,
CC(C)Oc1ccc(CCNC(=O)C2CCC(=O)N(C3CCCCCC3)C2)cc1 (centres undefined),x,x,4.2,x,4.5,
COCCCNC(=O)COc1ccc2oc3c(c2c1)CCCC3,x,x,1.5,x,-5.8,
Cc1cccc(OCCSc2nncn2C)c1,6.2,x,0.2,3.5%,-9.9,
COc1ccc(N/N=C(/C#N)S(=O)(=O)C(C)(C)C)cc1,5.2,x,1.7,-0.1%,-5.8,
COc1ccccc1NS(=O)(=O)c1cc(NC(=O)Nc2ccc(Cl)cc2Cl)ccc1N1CCCCC1,9.5,-26.4,-5.4,9.9%,3.1,
CCCn1c(SCC(=O)NCCc2ccccc2)nnc1C(C)C,x,x,-2.6,-2.9%,-6.7,
C=CCOc1c(Br)cc(CNc2ccc(NC(=O)C(C)C)c(OC)c2)cc1OC,-5.2,-34.7,0.3,-1.3%,-7.1,
CC(=O)COc1ccc2c(C)c(C)c(=O)oc2c1,2.5,-22.6,1.4,-1.5%,32.1,
CS(=O)(=O)n1nc(NCc2cccs2)nc1NCc1cccs1,4.8,x,-1.1,2.8%,-3.9,
COC(=O)C1=CN(CCOC23CC4CC(CC(C4)C2)C3)C=C(C(=O)OC)C1c1ccsc1,-13.1,x,-23.5,4.0%,-2.9,
CCOC(=O)CCc1n[nH]c(=O)[nH]c1=O,-2.2,-23.2,3.4,-4.3%,-9.3,Arbovirus anti repeat=5.2
O=C(Cn1cc2c(n1)CCCC2)NCCCN1CCN(Cc2ccccc2)CC1,5.5,-3.6,2.2,0.5%,1.1,Arbovirus anti repeat=6.7
Cc1ccc(-n2cnc3ncnc(-c4ccccc4)c32)cc1,8.4,x,0.9,5.0%,-6.5,
Cc1cccc(NC(=S)NCC(c2cccnc2)N2CCOCC2)c1C (centres undefined),1.2,-25.5,-0.9,-0.9%,-2.8,
CCN(CC)CC(=O)Nc1cccc(S(=O)(=O)N2CCCC2)c1,x,x,4.8,-3.1%,-4.8,
Cc1ccc(N2C(=O)C(NC(=O)c3ccccc3)(C(F)(F)F)C3=C2CC(C)(C)CC3=O)cc1 (centres undefined),7.2,-14.0,0.3,2.2%,-5.5,
COc1ccc(CCNC(=O)c2c(C)cc(=O)oc2C)cc1OC,1.8,3.8,0.9,2.1%,-3.7,
O=C(/C=C/c1ccccc1Cl)Nc1cccnc1,x,x,0.3,x,-5.8,
COC(=O)/C=C1/S/C(=N/NC(=O)c2ccc(Cl)cc2Cl)NC1=O,x,x,-4.6,-0.8%,-2.7,
O=C(CCN1C(=O)c2cccc3cccc(c23)C1=O)NC1CCS(=O)(=O)C1 (centres undefined),x,x,1.1,-0.3%,-6.5,
Cc1nc2cc(Nc3ccncc3)ccc2s1,-5.0,x,-2.4,-7.9%,-5.3,
O=C(CN1CCOCC1)Nc1nc2cc([N+](=O)[O-])ccc2s1,-8.0,-14.8,-2.2,0.6%,-4.1,
COc1ccccc1C(=O)N(Cc1sccc1C)C1CCS(=O)(=O)C1 (centres undefined),x,x,1.7,x,1.6,
COc1ccccc1-c1coc2c(CN3C(C)CCCC3C)c(O)ccc2c1=O (centres undefined),x,x,0.3,x,-3.5,
Cc1cccc(C(=O)NC(=S)Nc2ccc(Cc3ccncc3)cc2)c1,-17.0,-34.0,2.1,6.8%,14.8,
Cc1ccc(S(=O)(=O)NNC(=O)C(=O)NNc2ccccn2)cc1,-31.1,-3.3,-1.5,-3.6%,16.2,
CCCCCNC(=O)C1c2ccccc2Oc2ccccc21,x,x,-0.4,x,-2.4,
CCOc1nc(NC2CCCC2)nc(N2CCC(C)CC2)n1,x,x,2.9,x,43.7,
